Compound activity from PubChem.
YopH inh: YopH (Yersinia) phosphatase inhibition | fluorescence Ex485/Em525 | inhibition, %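 (about 10 µM by stock and volumes)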 | 140,000 tested, 0.16% active | AID 898;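 active = inhibition of 50% or more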;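 note: controls were vehicle for no effect and minimum signal wells for full effect; inactives centre near -20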
Arbovirus inh: blocks arbovirus infection | inhibition, % at 10 µM | arbovirus infection cell-based antiviral screen | 200,000 tested, 0.37% active;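 active = inhibition from about 30%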;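 note: bluetongue infection of BSR cells; cell survival read as ATP light after 72 h; 0% = infected wells without compound and 100% = uninfected wells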
RecA intein inh: blocks M. tuberculosis RecA intein splicing. P9WHJ3. cell-free RecA intein splicing, fluorescence. inhibition, %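 (about 9 µM by stock and volumes)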. 290,000 tested, 0.75% active. AID 2221; in the data active = inhibition above about 30%; inconclusive = no clear call, values can overlap the other calls;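 note: 0% = vehicle wells and 100% = reference inhibitor control wells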
Target sequence (P9WHJ3 whole entry, looked up): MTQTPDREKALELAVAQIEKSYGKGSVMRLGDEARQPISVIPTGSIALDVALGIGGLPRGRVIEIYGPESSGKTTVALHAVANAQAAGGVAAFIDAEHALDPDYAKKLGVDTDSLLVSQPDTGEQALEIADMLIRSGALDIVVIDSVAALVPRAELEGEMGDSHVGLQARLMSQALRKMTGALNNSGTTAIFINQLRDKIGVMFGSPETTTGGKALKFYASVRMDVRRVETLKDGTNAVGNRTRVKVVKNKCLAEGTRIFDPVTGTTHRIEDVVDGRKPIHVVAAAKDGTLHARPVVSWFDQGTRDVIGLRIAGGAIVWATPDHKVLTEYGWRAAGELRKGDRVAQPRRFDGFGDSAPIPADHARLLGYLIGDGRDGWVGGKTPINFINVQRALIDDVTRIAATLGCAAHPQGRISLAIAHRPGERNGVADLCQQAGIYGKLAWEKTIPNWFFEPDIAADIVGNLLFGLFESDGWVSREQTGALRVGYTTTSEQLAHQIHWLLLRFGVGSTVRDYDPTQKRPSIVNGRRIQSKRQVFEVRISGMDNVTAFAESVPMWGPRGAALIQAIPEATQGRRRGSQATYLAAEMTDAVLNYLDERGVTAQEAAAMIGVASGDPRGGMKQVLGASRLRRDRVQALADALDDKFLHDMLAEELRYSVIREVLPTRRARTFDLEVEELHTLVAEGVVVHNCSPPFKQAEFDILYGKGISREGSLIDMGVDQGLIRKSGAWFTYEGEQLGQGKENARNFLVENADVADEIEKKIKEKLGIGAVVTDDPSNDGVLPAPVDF
Mtb betalactam: beta-lactam sensitization of Mtb H37Rv; M. tuberculosis H37Rv growth with meropenem, percent inhibition; hits of this screen are not shown here; inhibition, % at 25 µM; 330,000 tested, 0.27% active; AID 434955;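 active = about 74% or more and at least 40 points above the plate without the antibiotic, then above 30% in a dose series; inconclusive = first-round hits that could not be retested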;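 note: growth measured after seven days incubation then overnight dye step; 0% = bacteria only wells and 100% = bacteria with antibiotic; twin plates without the antibiotic show which effects depend on it; some results filed as inactive read as strong as hits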
Mtb H37Rv: M. tuberculosis H37Rv growth inhibitors, H37Rv strain (AID 1626) | M. tuberculosis H37Rv growth inhibition; higher % means a stronger effect | one-dose inhibition, % at 10 µM; IC50 in µM for titrated hits | 220,000 tested, 0.95% active;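 active = confirmed in a dose series; inconclusive = inhibition above 80% but not taken into the dose series; inactive = below 80% or under 30% at every dose of the series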;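 note: bacteria incubated seven days before Alamar blue readout; 0% = bacteria only wells and 100% = bacteria with antibiotic wells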
Arbovirus inh repeat: second read-out of Arbovirus inh, no call of its own (marks repeat the call); inhibition, %; measured here: 10K subset replicate screen; many hits read low in the repeat;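 first of two repeat runs on a subset; 0% = infected and 100% = uninfected wells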
* hit, by the source's call; ? = inconclusive; . = not tested or not shown. Only part of the results is shown (hit frequency here may not be typical).

The opening 3 records (preview)
SMILES	YopH inh	Arbovirus inh	RecA intein inh	Mtb betalactam	Mtb H37Rv	others
CSc1nc2ccc(NC(=O)CSc3nnc(N)s3)cc2s1	-11	0	2.4	99	?
CC1CCN(S(=O)(=O)c2ccc(S(=O)(=O)NCc3cccnc3)cc2)CC1	.	10	1.0	18	-8%
COc1ccc(-c2cc(C(=O)NCc3ccco3)c3ccccc3n2)cc1	.	.	-4.4	4	.

Results, previewed entries included:
SMILES	YopH inh	Arbovirus inh	RecA intein inh	Mtb betalactam	Mtb H37Rv	others
CSc1nc2ccc(NC(=O)CSc3nnc(N)s3)cc2s1	-11	0	2.4	99	?
CC1CCN(S(=O)(=O)c2ccc(S(=O)(=O)NCc3cccnc3)cc2)CC1	.	10	1.0	18	-8%
COc1ccc(-c2cc(C(=O)NCc3ccco3)c3ccccc3n2)cc1	.	.	-4.4	4	.
CCN(CC)CCN(C(=O)c1ccc(C(C)=O)cc1)c1nc2ccc(Cl)cc2s1	.	-16	2.6	-5	6%
COc1cc(NC(=O)COC(=O)c2ccccc2F)cc(OC)c1	1	7	1.1	4	-1%
Cc1ccc2c(c1)N(CC(=O)Nc1ncccc1C)C(=O)C(C(C)C)O2 (stereo unspecified)	.	.	0.0	-6	.
Cc1cccc(OCCc2c(C)[nH]c(=S)[nH]c2=O)c1	.	-4	6.4	-1	5%
Cc1ccc(OCC(=O)N2CCN(C(=O)Cc3ccccc3)CC2)cc1	-36	12	0.0	-10	-5%
Cc1ncc(C[n+]2csc(CCOC(=O)CC3C4CC5CC(C4)CC3C5)c2C)c(N)n1 (stereo unspecified)	4	-7	0.3	-12	7%
Cc1cccc(C2c3[nH]c4ccccc4c3CCN2Cc2ccc(C)s2)n1 (stereo unspecified)	.	4	5.4	-5	4%
CN(CC(=O)Nc1sc2c(c1C#N)CCCCC2)Cc1nc2ccccc2c(=O)[nH]1	.	0	-0.4	98	43%
N/C(=N\[N+](=O)[O-])N1CCN(C(=O)Oc2ccccc2)CC1	.	.	-1.7	-4	.
Cc1ccccc1-n1c(SCC(=O)c2c(N)n(C)c(=O)n(C)c2=O)nc2sc3c(c2c1=O)CCCC3	-23	-11	5.9	1	21%
Cc1cc(C)nc(SC2CC(=O)N(c3ccc(Br)cc3)C2=O)n1 (stereo unspecified)	.	.	4.0	-2	.
O=C(CN1C(=O)/C(=C\c2ccc(F)cc2)Oc2ccccc21)NCc1ccco1	-12	-9	5.8	5	4%
CC(=O)Nc1ccc(NC(=O)C(C)OC(=O)C2CCCC2)cc1 (stereo unspecified)	.	.	-1.4	-7	.
Cc1ccc(/C=C2\SC(=S)N(CCC(=O)NNC(=O)c3ccc(O)cc3)C2=O)cc1	.	.	0.1	0	.
COc1ccc(CCNC(=O)C2CC(=O)N(C3CCCC3)C2)cc1OC (stereo unspecified)	-38	1	0.8	3	-7%
Cc1ccc(CNS(=O)(=O)c2ccc(C(F)(F)F)cc2)n1C	.	.	2.5	0	-7%
CC(=O)Nc1ccc(-n2c(C)nc(=O)c(-c3ccccc3)c2C)cc1	-28	2	3.4	-10	-1%
CCN(CC)C(=O)Cn1cc(C(=O)C(=O)N(CC)C2CCCCC2)c2ccccc21	.	.	-1.9	-4	.
CCCc1nc2ccccc2n1C(=S)SC	.	-3	-1.6	0	0%
COc1cc(CN2CCNC(=O)C2CC(=O)NCCCN2CCOCC2)cc(OC)c1 (stereo unspecified)	.	.	-1.4	-4	.
Cn1c(=O)c(C(=O)NC2CCCCCC2)c(O)c2ccccc21	.	.	4.4	6	.
Cc1ccc([N+](=O)[O-])cc1N=C(c1ccc([N+](=O)[O-])cc1)N1CCOCC1	-4	2	-1.0	-3	4%
Cn1c(=O)cc(SCC(=O)N2CCCC2)c2cc(Cl)ccc21	-14	-8	0.1	6	-1%
Cc1ccccc1NC(=O)c1cc(N)ccc1N1CCCCC1	19	-10	0.3	4	2%
CC(C)C(NC(=O)OCc1ccccc1)C(=O)OCC(=O)N1C(C)CCCC1C (stereo unspecified)	-20	-5	0.9	-4	-2%
CC(C)(C)c1ccc(C(=O)NCC(=O)N2CCNC(=O)C2)cc1	.	.	2.9	-1	.
C=CCN1C(c2ccccc2)=CS/C1=C(\C#N)c1nnc2n1CCCCC2	-47	0	-1.1	-5	-3%
Cc1ccc(NC(=O)CSc2ccc(-c3ccccn3)nn2)cc1	.	-29	-0.2	99	2µM*
CCOC(=O)/C(C#N)=C/c1ccc(OC(=O)c2ccco2)c(OCC)c1	-34	4	30	56	0%
CCCC[n+]1ccn(-c2nc3ccccc3nc2[N-]S(=O)(=O)c2ccc(C)cc2)c1	1	-9	-18	5	-6%
COc1ccc(CN2C(=O)c3cccnc3C2=O)cc1S(=O)(=O)NCc1ccccc1	.	.	1.2	0	.
O=S(=O)(c1ccc(F)cc1)n1ccc(-c2cccc(OCc3c(F)cccc3Cl)c2)n1	0	13	-0.7	10	-9%
O=C(CSc1ccccc1[N+](=O)[O-])NC1CCS(=O)(=O)C1 (stereo unspecified)	-5	8	0.8	-2	4%
COc1cc(C(=O)OCC(=O)NCCCc2ccccc2)ccc1OCC(C)C	.	.	1.0	-8	.
CC1(C)C(C=C(Cl)Cl)C1C(=O)N/N=C/c1ccccc1F (stereo unspecified)	.	.	3.4	0	.
Cn1cc(Cl)c(C(=O)N2CCN(c3ncccn3)CC2)n1	-36	5	1.4	-3	-6%
CCc1ccc(C2C(C#N)=C(N)N(N3CCOCC3)C3=C2C(=O)CC(C)(C)C3)s1 (stereo unspecified)	.	3	-3.1	-9	-1%
COc1ccccc1CSc1ncc(-c2ccc([N+](=O)[O-])cc2)[nH]1	-1	-22	3.4	4	12%
COc1ccc(-c2ncncc2-c2ccccc2)c(O)c1	.	.	3.2	-1	.
COc1ccc(S(=O)(=O)N2CCC(C(=O)NCCCN3CCOCC3)CC2)cc1	.	.	-0.6	-1	.
CCn1c(O)c(C=Nc2ccccc2)sc1=O	.	-1	-2.8	-1	-7%
O=C(COC(=O)Cc1ccc(Cl)cc1)Nc1ccc2[nH]c(=O)[nH]c2c1	.	.	-0.3	-8	.
COc1ccc(CC(=O)c2ccccc2C(=O)O)cc1	4	6	-0.2	4	-5%
CCC(C)N(C)C1CCN(C(=S)Nc2ccc(OC)cc2)CC1 (stereo unspecified)	.	-6	0.0	-8	5%
CCOc1ccc(CCNC(=O)CN2C(=O)NC3(CCCC3)C2=O)cc1OCC	.	.	-3.7	-1	.

Reprinted at random: six entries already listed, in no set order.
SMILES	YopH inh	Arbovirus inh	RecA intein inh	Mtb betalactam	Mtb H37Rv	others
COc1cc(C(=O)OCC(=O)NCCCc2ccccc2)ccc1OCC(C)C	.	.	1.0	-8	.
COc1ccccc1CSc1ncc(-c2ccc([N+](=O)[O-])cc2)[nH]1	-1	-22	3.4	4	12%
COc1ccc(CC(=O)c2ccccc2C(=O)O)cc1	4	6	-0.2	4	-5%
CC1(C)C(C=C(Cl)Cl)C1C(=O)N/N=C/c1ccccc1F (stereo unspecified)	.	.	3.4	0	.
CCc1ccc(C2C(C#N)=C(N)N(N3CCOCC3)C3=C2C(=O)CC(C)(C)C3)s1 (stereo unspecified)	.	3	-3.1	-9	-1%
Cn1cc(Cl)c(C(=O)N2CCN(c3ncccn3)CC2)n1	-36	5	1.4	-3	-6%

The listing continues:
SMILES	YopH inh	Arbovirus inh	RecA intein inh	Mtb betalactam	Mtb H37Rv	others
Cc1cccc(C(=O)NCC(=O)N(C)CC(=O)Nc2ccc(N3CCOCC3)cc2)c1	.	.	-2.0	-15	.
CCOC(=O)N1CCN(C(=O)COc2ccc(S(=O)(=O)NC(C)C)cc2)CC1	.	0	-1.7	1	0%	Arbovirus inh repeat=-2
Cc1nc(C2CC(=O)OC23CCCCC3)cs1 (stereo unspecified)	-48	.	-0.4	-5	-3%
O=[N+]([O-])c1ccc(Oc2cnc3ccccc3n2)cc1	.	8	6.1	3	.
CCOC(=O)CC(=O)CSc1nc(N)c(C#N)c(-c2ccc(Cl)cc2)c1C#N	-23	21	-5.1	-4	-9%
COc1cccc(CNS(=O)(=O)c2ccc3c(c2)CC(C)N3C(=O)C2CCC2)c1 (stereo unspecified)	.	.	0.2	2	.
FC(F)(F)c1cc(-c2ccc(Cl)cc2)nc2ncnn12	-14	8	0.2	-2	-7%
CCOc1cccc(C(=O)N(Cc2cccc(F)c2)C2CCS(=O)(=O)C2)c1 (stereo unspecified)	.	.	1.3	3	.
COc1ccc(NC(=O)COC(=O)Cc2ccccc2[N+](=O)[O-])cc1OC	.	8	-9.3	8	3%
CCn1c(CNC(=O)c2cccs2)n[nH]c1=S	-55	-3	2.8	-7	-2%
CC1CCC(C(C)C)C(OC(=O)COC(=O)c2cccn2C)C1 (stereo unspecified)	-43	-1	3.2	36	-6%
CCN(CC)CCCNC(=O)c1cc(-c2ccccc2)c(N2CCCCC2)s1	.	.	5.0	9	.
O=C(CSc1nnc2scc(-c3ccccc3)n12)Nc1nsc(-c2ccc(Cl)cc2)n1	28	.	3.0	68	6%
CCOc1ccccc1NC(=O)Nc1cccc(NC(C)=O)c1	.	.	-1.1	0	-9%
O=C(N/N=C/c1cn(-c2ccccc2)nc1-c1ccc2c(c1)OCCO2)c1ccncc1	.	-12	-2.4	96	?
Cn1c(C(=O)c2ccccc2)nc2ccccc21	.	.	2.1	?	.
C/C(CCc1ccccc1)=N\NC(=O)COc1ccccc1C	.	1	-0.8	10	3%
COc1cccc(N(C(=O)CNC(=O)c2ccco2)C(C(=O)NC2CCCCC2)c2ccncc2)c1 (stereo unspecified)	-48	4	4.9	-3	-7%
COc1cc(NC(=O)c2cc(OC)c(OC)c(OC)c2)c(OC)cc1NC(=O)CN1CCCCC1	-88	-19	-1.0	40	-3%
CCN(c1ccccc1)S(=O)(=O)c1ccc2c(c1)CCCN2C(C)=O	.	.	1.4	-5	.
Cc1nc(C)c(C(=O)N/N=C/c2cc(Br)ccc2O)s1	.	.	-0.2	0	3%
[O-][n+]1c2cc(C(F)(F)F)ccc2c2n1CCN=C2c1ccc(Cl)cc1	.	.	0.7	96	.
COc1ccc(C)cc1NC(=O)CSc1nc2scc(C)c2c(=O)[nH]1	.	.	2.1	1	.
CCN1C(=O)C2(SC(NC(C)=O)=NN2C(C)=O)c2cc(C)ccc21 (stereo unspecified)	-16	2	-1.3	-9	-6%
CCOC(=O)c1c(C)oc2ccc(OCc3cc(C(=O)OC)oc3C)cc12	3	-1	5.9	59	33%
CCN(C(=O)CCS(=O)(=O)c1cccc2nonc12)c1ccc(C)c(C)c1	.	.	5.6	10	.
Cc1coc(C)c1C(=O)CC1(O)C(=O)Nc2cc(Cl)cc(Cl)c21 (stereo unspecified)	-39	14	1.5	-3	-1%
O=C(Cc1ccccc1)NNC(=O)Nc1cccc(Cl)c1	-4	3	-3.0	-6	0%
COc1ccc(NC(=O)O/N=C/c2c(C)nn(C(C)(C)C)c2C)cc1	.	.	5.7	86	2%
Cc1onc(-c2ccccc2)c1C(=O)NCc1ccccc1F	.	.	-1.6	-13	.
COc1ccc(CCN=C2SCC(=O)N2Cc2ccccc2)cc1OC	.	4	-0.2	-4	-5%
O=C(Nc1ccc(Oc2ccsc2C(=O)O)cc1)c1ccccc1	.	.	-3.1	-4	.
CCOC(=O)c1c(NC(=O)CN2CCN(C)CC2)sc(C(=O)Nc2ccccc2)c1C	.	-20	-1.6	7	4%
Cc1nn(Cc2ccccc2Cl)c2sc(C(=O)NCc3ccc4c(c3)OCO4)cc12	-9	0	11	100	5.4µM*
COc1ccccc1-c1coc2c(CN3CCN(CCO)CC3)c(O)ccc2c1=O	3	.	-3.3	-23	-7%
CC(C)C1N(C(=O)N2CCOCC2)CCN1S(=O)(=O)c1ccccc1 (stereo unspecified)	.	.	-2.6	-11	.
CC(C)c1ccc(S(=O)(=O)N2CCN(C(=O)c3ccc(N4CCCC4)c([N+](=O)[O-])c3)CC2)cc1	.	.	1.3	67	.
Cc1cc(C)cc(N(C(=O)CNC(=O)c2ccco2)C(C(=O)NC2CCCCC2)c2cccnc2)c1 (stereo unspecified)	.	.	1.4	1	.
CCOC(=O)c1cc2c(C)[nH]c(C)c2cc(C(=O)OCC)c1=O	.	1	-1.9	2	-1%
O=C(NNC(=O)c1cccs1)c1cccnc1	.	.	-3.7	-2	.
Cn1c2c(c(=O)n(C)c1=O)C(c1ccc(Br)cc1)Nc1ccccc1O2 (stereo unspecified)	-35	-14	4.1	-5	2%
COc1ccc(C2CCCN2C(=S)Nc2ccc(C)cc2C)cc1OC (stereo unspecified)	.	0	10	17	1%
Nc1ccccc1C(=O)c1ccccc1	-44	-3	1.3	-6	-6%	Arbovirus inh repeat=2
Cc1ccc(C)c(NC(=O)CCn2cnnn2)c1	.	2	-1.7	-3	-4%
